Bioassay records as filed in PubChem BioAssay.
rRNA inh HTS = reduced GFP signal of wild-type E. coli, primary screen, bacterial rRNA inhibitor project, GFP/RFP fluorescence, OD600, single point; E. coli WT GFP vs humanized-ribosome RFP mutants, 24 h; stronger effect = lower value; DMSO median 0, no signal -100; GFP signal change (wild-type ribosome), % (test concentration not listed); actives 1.6% (n = 350,000);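 active means significant combined selectivity score with lowered wild-type GFP, culture density cut under 30%, mutant RFP and density less affected; inactive means any of these conditions unmet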; further: one replicate is shown; some compounds called inactive have numbers as strong as hits
MLL AF4-AF9 inh = inhibitors of AF4 peptide binding to AF9, primary screen, biochemical, AlphaScreen, biotin-AF4 peptide, FLAG-AF9, single point. AID 651704, 2012. inhibition, % at 10 µM. actives 0.47% (n = 350,000);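 active means every replicate reaching a set inhibition limit, whatever the replicate mean, cut at about 25% in these data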;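 further: 0% = plate neutral control median and 100% = total signal loss; the record names both 10 and 1 µM as test concentration; the first replicate is given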
Target sequence (P42568 whole entry, looked up): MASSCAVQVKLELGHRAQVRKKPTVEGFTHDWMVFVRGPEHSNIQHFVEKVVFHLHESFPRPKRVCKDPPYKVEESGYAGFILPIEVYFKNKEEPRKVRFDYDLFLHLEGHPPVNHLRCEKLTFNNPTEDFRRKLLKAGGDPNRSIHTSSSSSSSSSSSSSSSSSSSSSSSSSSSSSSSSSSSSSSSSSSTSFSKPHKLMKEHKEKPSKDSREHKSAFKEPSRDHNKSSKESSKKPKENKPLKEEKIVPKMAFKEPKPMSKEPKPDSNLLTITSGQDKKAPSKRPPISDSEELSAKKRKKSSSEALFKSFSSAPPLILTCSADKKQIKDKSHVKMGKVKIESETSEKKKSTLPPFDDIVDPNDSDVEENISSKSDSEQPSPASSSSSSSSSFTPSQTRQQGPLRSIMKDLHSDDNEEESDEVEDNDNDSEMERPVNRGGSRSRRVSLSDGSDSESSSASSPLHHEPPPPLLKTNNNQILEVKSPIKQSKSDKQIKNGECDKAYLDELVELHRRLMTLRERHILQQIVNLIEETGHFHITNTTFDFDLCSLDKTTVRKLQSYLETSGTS
rRNA inh HTS OD600 = second read-out of rRNA inh HTS, no call of its own (marks repeat the call); OD600 change, %; measured here: OD600 growth;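 optical density of the mix in the first replicate; 0 = DMSO median and -100 = no signal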
rRNA inh HTS RFP = further read-out of rRNA inh HTS, marked with its call; RFP signal change, %; measured here: RFP humanized mutant strains;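 first replicate; 0 = DMSO median and -100 = no signal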
Numbers without * were called inactive; & = joins results of further samples.

SMILES	rRNA inh HTS	rRNA inh HTS OD600	rRNA inh HTS RFP	MLL AF4-AF9 inh
COc1cccc(C2c3c(oc4ccccc4c3=O)C(=O)N2CCCN2CCOCC2)c1OC (configuration not stated)	3.7	4.3	1.8	-1.6
C[C@@H]1CN([C@@H](C)CO)C(=O)c2cc(-c3cccc(C#N)c3)cnc2O[C@@H]1CN(C)C	3.9	-2.9	-0.5	-3.4
C[C@@H]1CN([C@H](C)CO)C(=O)c2c(c3ccccc3n2C)-c2ccccc2CO[C@H]1CN(C)C(=O)c1ccncc1	0.8	4.7	-5.8	-2.0
Cc1ccc(S(=O)(=O)Nc2cccc3c2O[C@@H](CN(C)C(=O)Nc2ccccc2)[C@@H](C)CN([C@@H](C)CO)C3=O)cc1	-1.7	-5.3	0.4	1.9
COCC(=O)N1[C@@H]2c3ccc(/C=C/c4ccccc4)c(=O)n3C[C@H]1[C@H](CO)[C@H]2C(=O)N1CCCCC1	-2.3	-7.0	-3.1	0.9
COc1ccc(/C(O)=C2/C(=O)C(=O)N(CCCN3CCOCC3)C2c2ccc(Cl)cc2)cc1 (configuration not stated)	0.8	9.3	1.3	3.1
CO[C@H]1CN(C)C(=O)c2ccc(NC(=O)C3CC3)cc2OC[C@H](C)N(Cc2cc(F)ccc2F)C[C@@H]1C	-1.1	-14.0	5.7	-7.1
C[C@@H]1CN([C@@H](C)CO)S(=O)(=O)c2ccc(C3=CCCCC3)cc2O[C@@H]1CN(C)C(=O)Cc1cccnc1	-5.0	-14.6	-0.8	4.5
O=C(Cc1ccccn1)N[C@H]1CC[C@H](CCNS(=O)(=O)c2cccc(F)c2)O[C@@H]1CO	0.9	4.9	-0.8	-1.7
CS(=O)(=O)N1[C@H](C#N)[C@@H](c2ccc(/C=C/c3ccccc3)cc2)[C@H]1CO	-3.8	-10.1	-3.1	4.0
CC(=O)C1=CCC(c2ccccc2F)N(S(=O)(=O)c2ccc(C)cc2)C1 (configuration not stated)	-6.7	-17.8	-2.1	-1.6
C[C@H](CO)N1C[C@H](C)[C@H](CN(C)C)Oc2ncc(-c3cccc(F)c3)cc2C1=O	1.8	-6.1	-3.9	-0.2&-2.0
COC(=O)c1ccc(Cn2c(C)c(C(=O)NCc3ccc(C#N)cc3)sc2=O)o1	0.7	11.4	-2.2	-2.0
CN(C)CC(=O)Nc1ccc2c(c1)[C@@H]1C[C@@H](CC(=O)N(C)C)O[C@@H](CO)[C@@H]1O2	-1.6	-2.3	1.8	-2.0
CNC(=O)C[C@H]1CC[C@H]2[C@@H](COC[C@H](O)CN2Cc2ccccc2F)O1	-2.2	-2.7	0.7	-0.7
C[C@@H]1CN([C@@H](C)CO)C(=O)c2cc(NS(=O)(=O)c3cn(C)cn3)ccc2O[C@H]1CN(C)S(=O)(=O)c1ccc(Cl)cc1	-0.4	-3.0	-1.7	-0.9
Cc1noc(C)c1S(=O)(=O)Nc1ccc2c(c1)C(=O)N([C@@H](C)CO)C[C@H](C)[C@@H](CN(C)S(=O)(=O)c1ccc(Cl)cc1)O2	1.4	7.2	-1.8	-13.9
Cc1noc(C)c1NC(=O)N(C)C[C@@H]1Oc2ccc(N(C)C)cc2CC(=O)N([C@H](C)CO)C[C@H]1C	1.7	11.1	-0.1	-2.5
CCc1ccc([C@H]2[C@@H]3C(=O)C[C@@H]4C(=O)N(CC)C(=O)[C@@H]4[C@@H]3CN2S(=O)(=O)c2ccc(C)cc2)cc1	12.4	2.4	1.6	0.1
C[C@H](CO)N1C[C@H](C)[C@@H](CN(C)Cc2ccccc2F)Oc2cc(C#CC3CC3)ccc2S1(=O)=O	-5.0	4.5	-2.5	2.0
COc1ccc(C(=O)Nc2ccc3c(c2)C(=O)N(C)C[C@H](OC)[C@@H](C)CN(C)[C@@H](C)CO3)cc1	3.3	4.6	-0.4	-12.4
COc1ccc(CN(C)C[C@H]2Oc3ccc(NS(=O)(=O)c4cccs4)cc3CC(=O)N([C@@H](C)CO)C[C@@H]2C)cc1	-2.8	-8.8	3.4	-2.2
O=C(C[C@H]1CC[C@H]2[C@@H](COC[C@H](O)CN2C(=O)Nc2ccc(C(F)(F)F)cc2)O1)NCC1CCCCC1	-52.1	-73.8	-15.3	-0.5
CC(=O)Nc1cncc(-c2cccc(C(=O)N(C)C)c2)n1	1.8	12.9	-1.8	-1.0
O=C(Nc1ccc(F)cc1)N1CC(=O)N2[C@H](C1)[C@@H](c1ccc(-c3ccccc3)cc1)[C@@H]2CO	-48.4	-72.9	-2.8	1.0
COc1ccc(C(C)=O)cc1CC1(C)C(=O)Nc2ccc(OC(F)(F)F)cc21 (configuration not stated)	-50.2	-76.4	-12.6	-0.1
C[C@@H]1CN([C@H](C)CO)C(=O)c2cc(NS(=O)(=O)c3ccc(Cl)cc3)ccc2O[C@@H]1CN(C)S(=O)(=O)c1cccs1	-10.4	-16.4	-0.4	-0.2
COc1ccc2c3c(n(C)c2c1)[C@@H](CO)N(C(=O)c1cccnc1)CC31CCN(S(=O)(=O)c2ccccc2)CC1	-2.0	-5.9	1.9	0.7
O=C(CCN1CCCCC1)N[C@@H]1CC[C@@H](CCn2cc(-c3cccc(F)c3)nn2)O[C@H]1CO	2.5	10.8	0.4	0.3
CS(=O)(=O)N1CC(=O)N2[C@H](CO)[C@H](c3ccc(C#Cc4cccc(F)c4)cc3)[C@@H]2C1	7.7	4.1	18.1	-2.4
CN(C)CC(=O)N1[C@H](C#N)[C@@H](c2ccc(-c3ccccc3F)cc2)[C@H]1CO	2.7	10.2	3.8	-0.2
CCNC(=O)C[C@H]1CC[C@H]2[C@H](COc3ccc(NC(=O)Nc4c(C)noc4C)cc3C(=O)N2C)O1	-1.3	1.1	-1.0	-2.1
CCc1cnc(N2[C@H](C#N)[C@@H](c3ccc(C4=CCCCC4)cc3)[C@@H]2CO)s1	-2.9	-32.6	-0.2	5.1
CCC(=O)N1CC2(C1)[C@H](c1ccc(-c3ccccc3OC)cc1)[C@H](CO)N2C(C)=O	1.1	-7.0	-1.6	-1.3
COc1ccc(CN2C[C@@H](CO)O[C@@H](n3cnc4c(N5CCN(C)CC5)ncnc43)C2)cc1	1.6	2.5	0.7	2.2
C[C@@H]1CCCCO[C@@H](CN(C)CC2CC2)[C@@H](C)CN([C@H](C)CO)C(=O)c2cc(NC(=O)NC3CCCCC3)ccc2O1	2.6	-0.8	-1.8	-1.0
O=C(c1ccccn1)N1CC2(C1)[C@H](c1ccccc1)[C@H](CO)N2C(=O)C1CCCC1	-2.0	3.9	0.5	-1.8
CN1c2ccc(-c3ccc(C#N)cc3)cc2[C@H]2[C@H](CCN2C(=O)NC2CCCC2)[C@@H]1CO	-1.6	-6.0	2.0	0.3
CCc1nc2ccc(C(=O)Nc3ccc(OC)c(OC)c3)cn2c1N(C)C(=O)c1cccc(OC)c1	-4.8	-1.8	-0.9	-1.6
Cc1cccc(C)c1-n1nnnc1C(c1ccnc2ccccc12)N1CCN(C(=O)OC(C)(C)C)CC1 (configuration not stated)	14.6	15.6	-0.9	-3.6
CCCNC(=O)C[C@H]1C[C@@H]2c3cc(NC(=O)Nc4ccc(OC)cc4)ccc3O[C@@H]2[C@@H](CO)O1	-2.6	-2.4	0.1	-0.8
O=C(C[C@@H]1C[C@@H]2c3cc(NC(=O)Cc4ccncc4)ccc3O[C@@H]2[C@H](CO)O1)NCCN1CCCCC1	5.0	0.4	0.5	3.2
O=C(NCc1ccccn1)[C@@H]1CCCN1C(=O)[C@@H]1CCCN1C(=O)c1cccc2ccccc12	0.0	-1.3	-2.4	1.8
C[C@H]1CN([C@@H](C)CO)S(=O)(=O)c2ccc(-c3cncnc3)cc2O[C@H]1CN(C)Cc1cccnc1	1.6	-8.9	1.5	-0.9
C[C@@H]1CN([C@@H](C)CO)C(=O)c2cc(NC(=O)CCCN(C)C)ccc2O[C@@H]1CN(C)S(=O)(=O)c1ccccc1	8.5	25.2	1.0	2.0

Grouped by structure, those above containing an aryl methoxy group
SMILES	rRNA inh HTS	rRNA inh HTS OD600	rRNA inh HTS RFP	MLL AF4-AF9 inh
COc1cccc(C2c3c(oc4ccccc4c3=O)C(=O)N2CCCN2CCOCC2)c1OC (configuration not stated)	3.7	4.3	1.8	-1.6
COc1ccc(/C(O)=C2/C(=O)C(=O)N(CCCN3CCOCC3)C2c2ccc(Cl)cc2)cc1 (configuration not stated)	0.8	9.3	1.3	3.1
COc1ccc(C(=O)Nc2ccc3c(c2)C(=O)N(C)C[C@H](OC)[C@@H](C)CN(C)[C@@H](C)CO3)cc1	3.3	4.6	-0.4	-12.4
COc1ccc(CN(C)C[C@H]2Oc3ccc(NS(=O)(=O)c4cccs4)cc3CC(=O)N([C@@H](C)CO)C[C@@H]2C)cc1	-2.8	-8.8	3.4	-2.2
COc1ccc(C(C)=O)cc1CC1(C)C(=O)Nc2ccc(OC(F)(F)F)cc21 (configuration not stated)	-50.2	-76.4	-12.6	-0.1
COc1ccc2c3c(n(C)c2c1)[C@@H](CO)N(C(=O)c1cccnc1)CC31CCN(S(=O)(=O)c2ccccc2)CC1	-2.0	-5.9	1.9	0.7
CCC(=O)N1CC2(C1)[C@H](c1ccc(-c3ccccc3OC)cc1)[C@H](CO)N2C(C)=O	1.1	-7.0	-1.6	-1.3
COc1ccc(CN2C[C@@H](CO)O[C@@H](n3cnc4c(N5CCN(C)CC5)ncnc43)C2)cc1	1.6	2.5	0.7	2.2
CCc1nc2ccc(C(=O)Nc3ccc(OC)c(OC)c3)cn2c1N(C)C(=O)c1cccc(OC)c1	-4.8	-1.8	-0.9	-1.6
CCCNC(=O)C[C@H]1C[C@@H]2c3cc(NC(=O)Nc4ccc(OC)cc4)ccc3O[C@@H]2[C@@H](CO)O1	-2.6	-2.4	0.1	-0.8

Further entries follow.
SMILES	rRNA inh HTS	rRNA inh HTS OD600	rRNA inh HTS RFP	MLL AF4-AF9 inh
CS(=O)(=O)N1Cc2cc(C(=O)O)nc(-c3cccc(-c4ccccc4F)c3)c2[C@@H]1CCO	2.1	10.6	-0.1	-3.4
C[C@@H]1CN([C@H](C)CO)C(=O)c2cc(NC(=O)Cc3cn(C)c4ccccc34)ccc2O[C@H]1CN(C)Cc1ccc(Cl)c(Cl)c1	-1.0	10.1	0.2	-0.8
CN(C)C(=O)C[C@@H]1CC[C@H](NC(=O)c2ccc(F)cc2)[C@@H](CO)O1	-3.6	-0.4	-1.1	-2.3
O=C(C[C@@H]1CC[C@H](NC(=O)Cc2cccnc2)[C@@H](CO)O1)Nc1ccccc1	1.8	5.0	-1.5	-2.0
C[C@@H]1CN([C@H](C)CO)S(=O)(=O)c2ccc(C#CCN(C)C)cc2O[C@H]1CN(C)C(=O)CN(C)C	8.5	-3.1	-0.3	1.5
COc1ccc(NC(=O)c2ccc(-c3c(C)noc3C)c3ccoc23)cn1	-13.8	-31.3	-2.7	1.7
COc1cccc(S(=O)(=O)N[C@@H]2CC[C@H](CC(=O)NC3CCC3)O[C@@H]2CO)c1	3.9	10.0	-0.6	-0.4
C[C@@H]1CCCCO[C@@H](CN(C)C(=O)Nc2ccc(C(F)(F)F)cc2)[C@H](C)CN([C@@H](C)CO)C(=O)c2cc(NC(=O)Nc3cccc4ccccc34)ccc2O1	6.1	13.6	0.4	-0.6
C[C@@H]1CN([C@@H](C)CO)C(=O)c2cc(NC(=O)CCCN(C)C)ccc2O[C@H]1CN(C)S(=O)(=O)c1ccc(F)cc1	1.7	-0.8	2.4	-0.7
C/C=C/c1ccc([C@H]2[C@@H](CO)N3C(=O)CN(Cc4ccc(F)cc4)C[C@@H]23)cc1	-3.3	-2.4	2.2	4.9
COc1ccccc1-c1ccc2c(c1)O[C@H](CN(C)C(=O)c1ccncc1)[C@@H](C)CN([C@H](C)CO)S2(=O)=O	-2.4	0.6	-1.2	3.6
C[C@@H]1CN([C@@H](C)CO)C(=O)Cc2cc(NC(=O)C3CC3)ccc2O[C@H]1CN(C)CC1CCCCC1	3.2	1.4	-0.7	2.5

Some of the compounds tested; count on the stated rates, not on these rows.
